Screening results as filed in PubChem.
TRPV1 PAM: potentiators of human vanilloid receptor 1 (TRPV1) | 320,000 compounds, 0.02% hits | TRPV1-expressing cells, Fluo-8 calcium influx, capsaicin EC20 potentiation; host cell line not named in the record; control for the full effect not named in the record | potentiation, % at 8.33 µM | Q8NER1; active means potentiation above 80%; inconclusive means 30% to 80%; inactive means below 30%; also: 0% is about no effect
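TRPV1-expressing cells were cultured overnight at 35.5C and loaded with Fluo-8 calcium dye for 40 to 90 min at room temperature. After a 10 s baseline, compound was added and calcium influx was read kinetically for 3 min (ex 480/em 520 nm).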
D2 potentiator: positive allosteric modulators of human D2 dopamine receptor | P14416 | DiscoveRx D2 beta-arrestin cells, luminescence, 90 min; 100% = 57 uM dopamine signal | potentiation, % (test concentration not listed) | 360,000 compounds, 0.23% hits | AID 624464; active = potentiation of 50% or more; inconclusive = 30% to 50%; inactive = 30% or less;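 also: compound concentration not given in the record; tested on top of an EC20 dose of dopamine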
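PathHunter beta-arrestin assay in DiscoveRx D2 cells. Compounds were added with an EC20 of dopamine (50 nM final) for 90 min at 37 deg C. Luminescence was read 1 h after detection reagent, with 57 uM dopamine as the EC100 control.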
TRPML1 agonist: agonists of human TRPML1 channel | 410,000 compounds, 0.12% hits | AID 624414 | TRPML1-expressing cells, Ca2+ dye fluorescence, FDSS; host cell line not named in the record; reference of the full effect not given here | Q9GZU1 | activation, % (no concentration beside the values); in the data active = activation above about 50%; inconclusive = about 30% to 50%; inactive = below about 30%; also: 0% is about no effect; the text of the record puts the active cut at 80%
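Tetracycline-induced TRPML1-DL cells are seeded and incubated overnight before loading with a no-wash Ca2+ dye and quencher. Agonist activity is taken from the 110 s fluorescence read following compound pin-transfer on an FDSS, before EC80 54-4 challenge.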
CtBP-E1A inh: blocks the CtBP interaction with E1A; AlphaScreen GST-E1A/His-CtBP binding, 1536-well; stronger effect = lower value; control for the full effect not named in the record; activity change, % (concentration not given with the values); 340,000 compounds, 0.49% hits; AID 651724; in the data active means activity change below about -65%; inconclusive means about -30% to -65%; inactive means above about -30%; also: % is scaled to controls: 0 for no effect and ±100 for the full control effect
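In 5 uL wells, 23 nL compound meets equimolar GST-E1A and His-CtBP (5X stock 125 nM each) for 2 h, 37 °C. Beads (5X, 50 ug/mL) then 1 h, 37 °C, dark.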
Six1-Eya2 inh: inhibitors of human Six1/Eya2 interaction; Q15475+O00167; AlphaScreen GST-Six1/His-Eya2 binding, biochemical; stronger effect = lower value; control for the full effect not named in the record; activity change, % (test concentration not listed); 360,000 compounds, 0.56% hits; in the data active = activity change below about -65%; inconclusive = about -30% to -65%; inactive = above about -30%; also: % is scaled to controls: 0 for no effect and ±100 for the full control effect
Target sequence (O00167 whole entry, looked up): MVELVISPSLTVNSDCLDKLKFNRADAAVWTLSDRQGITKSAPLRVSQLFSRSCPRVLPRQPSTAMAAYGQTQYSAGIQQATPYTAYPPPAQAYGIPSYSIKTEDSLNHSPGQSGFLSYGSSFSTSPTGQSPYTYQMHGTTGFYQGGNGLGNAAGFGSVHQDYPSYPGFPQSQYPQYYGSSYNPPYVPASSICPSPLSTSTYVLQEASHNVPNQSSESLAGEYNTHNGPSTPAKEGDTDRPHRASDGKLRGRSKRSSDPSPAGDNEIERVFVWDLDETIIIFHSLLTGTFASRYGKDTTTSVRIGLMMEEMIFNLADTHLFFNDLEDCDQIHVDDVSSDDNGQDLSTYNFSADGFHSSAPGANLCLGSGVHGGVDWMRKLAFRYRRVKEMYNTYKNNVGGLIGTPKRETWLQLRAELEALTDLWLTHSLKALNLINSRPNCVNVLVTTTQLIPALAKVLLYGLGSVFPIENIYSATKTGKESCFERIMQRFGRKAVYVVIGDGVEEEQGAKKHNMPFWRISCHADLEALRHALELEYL
Target sequence (Q15475 whole entry, looked up): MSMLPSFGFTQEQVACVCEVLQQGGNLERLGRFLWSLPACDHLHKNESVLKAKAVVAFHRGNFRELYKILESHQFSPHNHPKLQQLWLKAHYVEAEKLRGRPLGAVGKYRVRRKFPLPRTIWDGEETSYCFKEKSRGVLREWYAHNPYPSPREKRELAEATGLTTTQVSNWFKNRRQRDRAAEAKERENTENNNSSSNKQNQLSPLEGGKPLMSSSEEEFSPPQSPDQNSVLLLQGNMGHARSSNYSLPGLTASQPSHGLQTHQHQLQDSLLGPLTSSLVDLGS
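Six1/Eya2 binding was read as AlphaScreen signal after compounds were pinned into GST-Six1 plus His-tagged Eya2 (5X stock 250/500 nM) in pH 8.0 Tris/NaCl/TCEP buffer, beads added, then incubated 1 h, 37 C, dark.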
TRPML1 inh: human mucolipin-1 channel inhibition. Q9GZU1. TRPML1-inducible cells, Ca2+ dye fluorescence, FDSS; stronger effect = lower value; inhibition of EC80 agonist-evoked calcium signal. activity change, negative = inhibition, % (no concentration beside the values). 390,000 compounds, 0.02% hits. AID 624415; in the data active means activity change below about -50%; inconclusive means about -30% to -50%; inactive means above about -30%;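 also: stimulus is agonist 54-4 at its EC80 concentration; % is scaled to controls: 0 for no effect and ±100 for the full control effect; compound concentration not given in the record; the text of the record puts the active cut at -80%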
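Tet-induced TRPML1-DL cells loaded with Ca8 no-wash calcium dye were read kinetically on FDSS. Compound addition was followed by EC80 agonist 54-4 (4 uM final); inhibition was read over 110 s.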
The depositor's hits bear a star; ? = inconclusive; / = no result given; & = joins results of further samples.

SMILES	TRPV1 PAM	D2 potentiator	TRPML1 agonist	CtBP-E1A inh	Six1-Eya2 inh	TRPML1 inh
COc1ccc(OC)c(NC(=S)N(CCc2c(C)[nH]c3ccccc23)Cc2cccs2)c1	11	-1	-0.8	-21	?	19
O=C(CCCN1CC=C(n2c(=O)[nH]c3ccccc32)CC1)c1ccc(F)cc1	7&-9	-33	-1.0	-3	-6	1
CCOc1c(Br)cc(C2NC(=O)CCC2[N+](=O)[O-])cc1OC (stereo unspecified)	1	-5	-0.3	/	6	5
COc1cccc(OCCSc2nc3ccccc3c(=O)[nH]2)c1	9	-6	0.2	0	-5	-9
COc1cc([C@@H]2C[C@H]3CN(c4ccccc4)C(=O)[C@]34CCCN24)cc(OC)c1OC	1	-4	1.5	/	1	-4
COc1cc(C(C)=O)ccc1OCCN1CCC(Cc2ccccc2)CC1	-11	-20	0.9	-2	-2	11
Cc1cccc(C)c1NC(=O)CN1C(=O)NC(C)(CCc2ccccc2)C1=O (stereo unspecified)	5	-39	1.4	/	9	-20
Cc1ccc(NC(=O)N2CCC(C(=O)c3ccc(F)cc3)CC2)cc1	8	-8	2.5	3	-5	34
O=c1c(Br)c(N2CCOCC2)cnn1-c1ccccc1	-5	2	3.3	/	4	13
O=[N+]([O-])c1ccc(/C=C/c2ccc3cccc(O)c3n2)cc1	6	-7	2.8	-11	-2	33
O=C(OCCN1C(=O)c2ccccc2C1=O)c1cccs1	-12	4	0.7	4	1	17
O=C(c1ccc(S(=O)(=O)Nc2cccc(C(F)(F)F)c2)cc1)N1CCN(c2ccccc2O)CC1	12	-31	0.1	6	1	2
COc1cc(NC(=O)Nc2cccn3nc(COCCO)nc23)cc(OC)c1OC	/	2	-0.9	3	-2	/
CCCn1c(SCN2C(=O)c3ccccc3C2=O)nc2cc(Cl)ccc2c1=O	10	-3	0.1	-1	-3	-16
CCCCc1ccc(NC(=O)N[C@H](C(=O)O)C(C)CC)cc1 (stereo partly specified)	3	3	0.2	1	-14	28
COc1ccc(OC)c(NC(=O)COC(=O)c2ccc(OC)c(S(=O)(=O)N3CCOCC3)c2)c1	13	0	0.0	/	1	-11
Cc1onc(-c2ccccc2Cl)c1C(=O)N1C=CC(C(F)(F)Cl)=NCC1	0	2	0.5	6	5	19
CCN(CC)S(=O)(=O)c1cccc(-c2nnc(SCC(=O)NCCC3=CCCCC3)n2N)c1	-3	-18	0.3	7	-1	-7
Nc1nccnc1C(=O)OCC(=O)Nc1ccc2[nH]c(=O)[nH]c2c1	30	26	-0.4	-11	?	19
O=C(CCOc1ccccc1)Nc1ccnn1C1CCN(C(=O)CCC(F)(F)F)CC1	3	-5	-0.4	-3	1	-4
COc1ccccc1NC(=O)CN(Cc1ccco1)C(=O)c1ccc(N2CCCC2=O)cc1	/	-28	0.3	3	-5	9
COc1ccc(CC(=O)OCC(=O)NCC2CCCO2)cc1OC (stereo unspecified)	-5	3	0.5	/	1	16
Cc1nnc(NC(=O)c2sc3ccccc3c2Cl)s1	4	-12	1.8	2	-3	-2
O=C(O)c1ccc(NC(=S)Nc2ccc(S(=O)(=O)Nc3ccccn3)cc2)cc1	/	-9	0.2	-2	-5	19
c1ccc(C(c2ccccc2)N2CCN(c3nc4ccccc4n4cnnc34)CC2)cc1	6	10	-0.8	-13	5	-5
N=c1oc2cc(O)ccc2cc1C(=O)Nc1ccc(F)cc1	4	-3	0.1	1	1	12
COc1cc(Cl)c(C)cc1NC(=O)CSc1ccccc1	2	-7	0.3	13	21	23
Cc1nc(CN(C)C(=O)c2cc(COc3c(F)cccc3F)on2)cs1	-3	-4	0.0	0	1	-15
CCCn1c2c(c(O)c(C(=O)Nc3ccc(OCC)cc3)c1=O)CCCC2	-2	12	-2.0	5	4	-3
CCOC(=O)C(=NC1CCS(=O)(=O)C1)NNc1cc(Cl)ccc1Cl (stereo unspecified)	-7	-9	0.3	-10	-10	-13
OCC[C@H]1C[C@H](O)[C@@H](O)[C@@]2(CCCc3ccccc3O2)O1	-6	-2	-0.7	13	2	0
Cc1ccc(C)c(NC(=O)CN(C)C(=O)C2COc3ccccc3O2)c1 (stereo unspecified)	17	0	0.3	0	26	-23
Oc1ccc(/C=N/Nc2ccnc3cc(Cl)ccc23)cc1O	-9	-30	/	?	-30	/
CC1(C)CC(=O)C=C(c2cccnc2)C1	/	-11	-0.9	7	0	0
COc1ccc(-c2cc(C(=O)N(C)CC(=O)Nc3cccc(F)c3)c3ccccc3n2)cc1OC	/	-4	-1.0	0	-2	8
CN1CCNC(=O)C1CC(=O)O (stereo unspecified)	3	-7	-0.6	7	3	-5
CC(C)(C)OC(=O)C[C@H]1C/C=C\C[C@H](CC(=O)N(CCO)Cc2ccccc2)C(=O)NCCOC1=O	/	-5	-0.2	9	1	-12
CC(C)N1CCN(Cc2ccc(C#CC(C)(C)O)s2)CC1CCO (stereo unspecified)	9	-7	1.1	4	-1	27
CNc1ncnc2sc(-c3ccccc3)cc12	-10	-5	-0.6	18	0	15
NS(=O)(=O)c1ccc(CCNC(=O)c2ccc(OCC3CCCO3)cc2)cc1 (stereo unspecified)	3	-2	1.3	-4	15	-9
N#C/C(=C\N1CCN(Cc2ccc3c(c2)OCO3)CC1)c1nc2ccccc2s1	8	2	6.1	-22	?	-2
C[C@@H]1CN([C@@H](C)CO)C(=O)c2cc(N(C)C)ccc2O[C@@H]1CN(C)Cc1ccncc1	/	-12	-0.4	-2	-6	-9
COc1ccc(-n2cc(CN(C)Cc3n[nH]c(=O)[nH]3)c(-c3cccc(F)c3)n2)cc1	6	-2	-1.2	-2	0	-3
COc1ccc(N2C(=O)[C@@H]3[C@H](C2=O)[C@H]2C=CC=NN2[C@@H]3C(=O)Nc2ccc(Cl)cc2)cc1	-6	-9	5.5	-6	-3	10
Cc1cccc(C)c1NC(=S)N1CCCN(C)CC1	4	-2	-0.3	9	17	-15
Cc1cccc(-c2cccc(NC(=O)C3CCCN(C(=O)c4csc(C)n4)C3)c2)c1 (stereo unspecified)	-3	-20	1.8	-4	-4	-12
Oc1ccc(Nc2ccnc3cc(Cl)ccc23)cc1	-24	-3	0.2	-16	-22	20
O=C(N/N=C/c1coc2ccccc2c1=O)c1ccncc1	4	6	0.0	-1	-1	-10
Nc1nc2c(s1)CCc1ccccc1-2	?	27	/	6	-11	/
CC(NS(=O)(=O)c1ccc2ccccc2c1)c1ccccn1 (stereo unspecified)	/	-4	-0.2	-29	-13	-6
Cc1ccc(N(CC(=O)NCCSCc2ccco2)S(C)(=O)=O)cc1	4	-14	-0.5	5	-1	6
COc1ccc([N+](=O)[O-])cc1-c1[nH]c(-c2ccc(C(=O)O)cc2)nc1-c1ccccc1	21	-14	-0.1	-15	-13	-17
COC(=O)Cc1c(CSc2ccccc2)oc2ccc(O)c(CN(C)C)c12	-4	1	-0.8	-2	-1	-11
CCOc1ncccc1C(=O)N1CCN(S(=O)(=O)c2ccccc2)CC1	4	-1	-0.7	-1	1	-21
Cc1ccccc1C(=O)N1CCN(c2nc(N3CCOCC3)nc(N3CCOCC3)n2)CC1	1	-12	-0.1	3	-1	37
Cc1nc(N2CCC(C)CC2)c2c(C)c(C(=O)Nc3ccc4c(c3)OCCO4)sc2n1	-35	-3	4.4	/	0	1
O=C(Nc1ccc(N2CCN(C(=O)c3ccco3)CC2)cc1)c1cccnc1Cl	4	1	5.2	0	-2	3
COc1ccc(OC)c(-n2c(SCC(=O)NCC3CCCO3)nc3ccccc3c2=O)c1 (stereo unspecified)	/	-4	-0.3	0	3	-3
C/C(CC(=O)N1CCN(C=O)CC1)=N\NC(=O)c1ccc([N+](=O)[O-])cc1	0	-2	0.1	/	9	6
COc1ccc(S(=O)(=O)Nc2ccc3c(c2)C(=O)N([C@H](C)CO)C[C@H](C)[C@@H](CN(C)S(=O)(=O)c2cn(C)cn2)OCCCC[C@H](C)O3)cc1	/	7	-0.3	7	-3	3

Following part.
SMILES	TRPV1 PAM	D2 potentiator	TRPML1 agonist	CtBP-E1A inh	Six1-Eya2 inh	TRPML1 inh
Cc1noc(C)c1S(=O)(=O)N1CCC(C(=O)O)CC1	2	-4	-0.5	12	1	12
Cc1sc2nc(C3CC3)nc(SCC(=O)N3CC(=O)Nc4ccccc43)c2c1C	/	-8	0.8	6	-2	-8
Cc1oc(-c2ccccc2)cc1C(N)=O	3	1	0.0	-8	-10	-10
Cc1cccc(NC(=O)CSCc2cc(=O)n3nc(C4CC4)sc3n2)c1	10	-6	-0.3	/	-2	10
CC(=O)c1ccc(OCC(O)CN2CCC(C)CC2)cc1 (stereo unspecified)	/	-5	-0.1	-9	9	4
O=C1C(=O)N(CCN2CCOCC2)C(c2ccc([N+](=O)[O-])cc2)/C1=C(/O)c1ccc2c(c1)OCO2 (stereo unspecified)	-5	-7	0.0	-11	19	6
COc1ccc(CNC(=O)Cn2c(=O)n(CCC(=O)N3CCCCC3)c(=O)c3sccc32)cc1	-10	-5	0.1	/	5	17
CC(C)Oc1c(Cl)cc(CNC(C)(C)CO)cc1Cl	-10	0	0.7	7	3	18
O=C(/C=C/Nc1ccc(Oc2ccccc2)cc1)c1ccco1	-5	1	3.1	11	6	3
O=C(CSc1nccc(=O)[nH]1)N1CCN(c2ccccc2)CC1	9	-11	0.1	-3	1	23
O=[N+]([O-])c1ccc(N2CCN(c3ccc([N+](=O)[O-])cc3CO)CC2)c(CO)c1	6	-6	0.3	2	1	1
CCc1cc(=O)oc2c3c(cc(OCC(=O)NCCN4CCOCC4)c12)OC(C)(C)CC3	3	-49	/	3	-6	/
Cc1ccc(CNC(=O)COC(=O)Cc2ccc(-c3ccccc3)cc2)cc1	0	1	1.7	4	1	-19
Cc1cc(=O)n2[nH]nnc2n1	14	-4	-0.5	/	10	?
CS(=O)(=O)c1ccc2nc(NC(=O)c3ccc(Cn4cc(Br)cn4)o3)sc2c1	-1	1	-0.3	-2	-1	11
OC[C@@H]1CN(Cc2ccco2)C[C@H](n2cnc3c(NCc4ccncc4)ncnc32)O1	/	-1	-0.2	7	4	/
CCC(=O)Nc1ccccc1C(=O)C(=O)Nc1ccccc1	2	-10	0.5	/	6	-14
Cc1nn(C(=O)CCCC(=O)NCc2ccccc2)c2ccccc12	-7	-6	0.2	/	9	3
